Screens (PubChem)
AF4-AF9 inh – inhibitors of AF4 peptide binding to AF9, primary screen, biochemical, AlphaScreen, biotin-AF4 peptide, FLAG-AF9, single point; inhibition, % at 10 µM; actives 0.47% (n = 350,000); AID 651704, 2012;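 active means every replicate reaching a set inhibition limit, whatever the replicate mean, cut at about 25% in these data; inconclusive means mean inhibition reaches that limit but some replicates miss it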;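 further: 0% = plate neutral control median and 100% = total signal loss; the record names both 10 and 1 µM as test concentration; the first replicate is given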
Target sequence (P42568 whole entry, looked up): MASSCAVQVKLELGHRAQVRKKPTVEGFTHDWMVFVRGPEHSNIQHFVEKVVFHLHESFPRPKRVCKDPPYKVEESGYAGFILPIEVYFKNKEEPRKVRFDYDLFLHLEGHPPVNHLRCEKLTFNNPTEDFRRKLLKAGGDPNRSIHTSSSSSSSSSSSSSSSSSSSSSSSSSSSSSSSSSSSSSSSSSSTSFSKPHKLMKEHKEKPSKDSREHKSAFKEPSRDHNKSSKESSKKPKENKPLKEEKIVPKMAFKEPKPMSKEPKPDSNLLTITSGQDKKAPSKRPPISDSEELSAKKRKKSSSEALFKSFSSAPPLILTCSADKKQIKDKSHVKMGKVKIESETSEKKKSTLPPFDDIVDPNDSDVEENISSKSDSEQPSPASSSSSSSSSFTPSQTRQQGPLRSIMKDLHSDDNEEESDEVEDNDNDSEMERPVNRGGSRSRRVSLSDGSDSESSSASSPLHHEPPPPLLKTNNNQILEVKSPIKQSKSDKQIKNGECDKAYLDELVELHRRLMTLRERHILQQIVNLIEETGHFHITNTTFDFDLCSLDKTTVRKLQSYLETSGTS
Beta cell apopt – inhibitors of cytokine-induced beta cell apoptosis, primary screen, luminescence | INS-1E cytokine-induced death, ATP luminescence, 48 h; percent of positive-control rescue, neutral wells zero | protection from apoptosis, % (no concentration beside the values) | actives 0.8% (n = 300,000) | AID 435005, 2010;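 active means all replicates at 75% or more, or half of them and the mean; inconclusive means half reach 75% but not the mean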;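 further: 0% = cytokine-treated negative control wells and 100% = positive control rescue; higher means more ATP so stronger rescue from cytokine killing; wells of about 40 µL received 100 nL stock; the first replicate is given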
A1 inh – caspase 3/7 activation in MEF A1-2A-BIM cells, primary screen, A1 inhibitor project, cell-based, luminescence, HTS | caspase activation, % (no concentration beside the values) | actives 0.066% (n = 330,000) | Caspase-Glo 3/7 luminescence, 3 h; percent of clofoctol response, vehicle zero;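 active means over half of replicate activation scores above 10%, or exactly half above 10 with the replicate mean above 10; inconclusive means replicate mean below 10 yet half the replicates above 10; inactive means over half of replicates below 10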;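 further: wells of about 30 µL received 50 nL stock; many hits fall short of the cut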
Ecoli rRNA inh – reduced GFP signal of wild-type E. coli, primary screen, bacterial rRNA inhibitor project, GFP/RFP fluorescence, OD600, single point; AID 720706, 2013; GFP signal change (wild-type ribosome), % (test concentration not listed); actives 1.6% (n = 350,000); E. coli WT GFP vs humanized-ribosome RFP mutants, 24 h; hits give low values; DMSO median 0, no signal -100;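 active means significant combined selectivity score with lowered wild-type GFP, culture density cut under 30%, mutant RFP and density less affected; inactive means any of these conditions unmet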; further: one replicate is shown; some compounds called inactive have numbers as strong as hits
Calb FLC – C. albicans growth inhibition with fluconazole, primary screen, CaCi-2 strain, Alamar Blue fluorescence. AID 1979, 2009. C. albicans CaCi-2 (fluconazole-resistant clinical isolate) + fluconazole, 48 h. actives 0.57% (n = 300,000). growth inhibition, % (concentration not given with the values);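 active means most replicates above 75%; inconclusive means exactly half above 75%; inactive means most below 75%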;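 further: all wells also contain fluconazole at 8 µg/ml as a sub-toxic cotreatment; 0% = median of DMSO wells and 100% = median of geldanamycin control wells; wells of about 8 µL received 7.5 nL stock; the first replicate is given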
Vif A3G – inhibitors of Vif binding to APOBEC3G peptide, primary screen, biochemical, TR-FRET, GST-Vif 1-94, biotin-A3G peptide, dose response retest (AID 1117319). TR-FRET GST-Vif / biotin-A3G peptide binding; higher % means a stronger effect; test concentration not given here; strong numbers were not always called active. Virion infectivity factor (Human immunodeficiency virus type 1 group M subtype B (isolate …. actives 0.57% (n = 260,000). inhibition, %, or IC50 in µM where a hit was titrated;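 active means above the screen mean plus three standard deviations and confirmed in dose response; inconclusive means results disagree or hit not tested in dose response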;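 further: Vif residues 1-94 fused to GST binding biotinylated APOBEC3G peptide 110-148; 0% = full assay without inhibitor and 100% = GST in place of GST-Vif; retest series ran down from 100 µM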
T cruzi repl – inhibitors of intracellular T. cruzi growth, primary screen, luminescence, NIH3T3 host cells | T. cruzi beta-gal in NIH3T3, 90 h | inhibition, % (no concentration beside the values) | actives 1.4% (n = 300,000) | AID 1885, 2009;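 active means mean inhibition across valid replicates above about 55%, limit read from the data; inconclusive means mean below that limit but half or more replicates reach it; inactive means mean below it, under half of replicates reach it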;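 further: signal also drops with host cell toxicity which is not excluded here; 0% = plate median of DMSO wells and 100% = zero luminescence signal; higher percent means less beta-gal luminescence so fewer parasites; stock transfer was 50 nL into about 50 µL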
RanGTP-Imp inh – inhibitors of RanGTP-importin-beta interaction, primary screen, biochemical, FRET, CFP-Ran, YFP-importin-beta, homogeneous. Ran GTPase (GTP-bound) - importin-beta complex. cell-free CFP-Ran/YFP-importin-beta FRET ratio. inhibition, % (test concentration not listed). actives 1.1% (n = 300,000);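 active means most replicates above 15%; inconclusive means exactly half above 15%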;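 further: 0% = DMSO wells and 100% = Ran loaded with GDP instead of GTP; wells of about 40 µL received 100 nL stock; the first replicate is given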
Ecoli rRNA inh OD600 – recorded beside Ecoli rRNA inh, whose call it bears; OD600 change, %; measured here: OD600 growth;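 optical density of the mix in the first replicate; 0 = DMSO median and -100 = no signal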
Ecoli rRNA inh RFP – further read-out of Ecoli rRNA inh, marked with its call; RFP signal change, %; measured here: RFP humanized mutant strains;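 first replicate; 0 = DMSO median and -100 = no signal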
* marks the source's active call; other numbers are inactive results; ? = inconclusive; nt = not tested or not shown; & = joins results of further samples. Not all compounds are listed. The share of hits here may be higher or lower than overall.

SMILES	AF4-AF9 inh	Beta cell apopt	A1 inh	Ecoli rRNA inh	Ecoli rRNA inh OD600	Ecoli rRNA inh RFP	Calb FLC	Vif A3G	T cruzi repl	RanGTP-Imp inh
CCC(C)NC(=O)Cc1c(C)c2cc3c(cc2oc1=O)OC(C)(C)CC3 (stereo not given)	2.3	3	0.0	7	10	2.1	2	-5%	-11	?
Nc1ccc(Oc2ccc(Cl)cc2)cc1	nt	nt	0.8	nt	nt	nt	-14	7%	-12	-2.9
Cc1ccc(-c2nc(CS(=O)(=O)CC(=O)NCCN3CCOCC3)c(C)o2)cc1	-0.5	-6	0.1	6	7	-0.5	5	nt	0	9.0
CCCCC(=O)Nc1ccccc1CC	7.3	0	-0.1	12	5	7.3	26	nt	-17	5.2
CCOc1ccc(NC(=O)CN(C)C(=O)c2cccnc2SC)cc1OCC	-0.1	-6	-0.5	1	1	-1.1	4	nt	-5	9.2
O=C1[C@@H]2Cc3c([nH]c4ccccc34)C(c3cccc([N+](=O)[O-])c3)N2C(=O)CN1CCCO (stereo not given in full)	0.9	-5	-0.5	-3	6	0.6	-1	-4%	17	0.5
COc1ccc(NC(=S)N2CCCCCC2)cc1OC	-1.8	-1	-0.5	11	9	4.8	-10	4%	-3	3.2
Cn1c(=O)c2c(nc(NCc3cccnc3)n2Cc2ccccc2Cl)n(C)c1=O	-2.2	-3	1.1	6	2	1.7	9	6%	-3	?
O=C(COc1ccc(Cl)cc1[N+](=O)[O-])N/N=C/c1cccs1	1.6	-6	0.5	9	12	-0.2	-3	6%	0	1.4
CC1CCC(NC(=O)c2cccc(S(=O)(=O)N3CCN(c4ccc(F)cc4)CC3)c2)CC1 (stereo not given)	-1.2	20	1.1	6	10	-6.6	-8	1%	15	-4.9
Cc1ccc(-n2c(=O)c3ccc(C(=O)NCc4ccco4)cc3n(Cc3ccccc3C#N)c2=O)cc1	-9.3	nt	0.8	17	14	-3.3	2	nt	3	-0.1
COc1ccc(C2c3ccc(O)cc3Oc3ncn4nc(-c5ccccn5)nc4c32)cc1OC (stereo not given)	7.2	7	0.4	-12	-5	35	-7	-9%	3	7.0
C=CCOc1ccc(/C=N/NC(=O)C(=O)N2CCCCCC2)cc1OC	-14	-3	-0.6	4	5	1.4	-10	nt	-1	1.7
CCN(CC)S(=O)(=O)c1ccc(C(=O)OCC(=O)c2ccc3c(c2)NC(=O)CO3)cc1	-2.2	-5	1.2	-2	-3	-5.3	2	-13%	-15	6.5
Clc1ccc(-c2nnc3ccccn23)cc1	nt	-4	-0.8	nt	nt	nt	?	1%	1	-2.7
CCCCC(C(=O)O)C(C)CC(=O)Nc1nccs1 (stereo not given)	-5.5	-5	0.7	6	7	7.1	1	-2%	-11	5.0
CCCCCC(O)(c1ccc(OCC)cc1)C(CN1CCOCC1)c1ccccc1 (stereo not given)	-28	13	0.1	-26	-23	18	-6	-5%	26	-0.4
O=C(CN1C(=O)NC2(CCc3ccccc32)C1=O)c1c[nH]c2ccccc12 (stereo not given)	6.5	-3	-0.7	0	-1	0.2	-5	4%	-2	-0.4
Cc1c(NC(=O)c2cccnc2C(=O)O)cccc1C(=O)O	nt	-2	-0.2	nt	nt	nt	2	14%	12	2.5
COc1ccc(CC(=O)NCc2nc(-c3ccccc3)no2)cc1	-1.3	1	0.6	-10	-7	7.4	-12	2%	17	2.1
Cc1cccc(N=C(NO)c2nonc2N)c1	-0.5	1	0.2	-8	-7	-7.8	-5	-2%	-14	-1.9
CC(=O)N(c1ccccc1)c1nc(/C=C/C(=O)Nc2c(C)cc(C)cc2C)cs1	nt	-3	1.6	nt	nt	nt	-1	-13%	-6	1.4
COC(=O)c1sccc1NC(=O)C1CC1	-4.2	1	0.7	10	16	-1.3	-1	-2%	0	-0.9
Cc1nnc(N(Cc2ccco2)C(=O)c2ccno2)s1	nt	-4	0.0	nt	nt	nt	-4	16%	-9	0.2
COc1ccc(NC(=O)CC2C(=O)N(CCc3ccccc3)C(=S)N2Cc2cccnc2)cc1 (stereo not given)	nt	7	0.2	nt	nt	nt	2	3%	63*	4.2
OCCNc1nc(-c2ccccc2)nc2c1oc1ccccc12	2.4	-4	-0.2	-8	5	2.1	2	18%	2	2.7
Cc1ccccc1OCC1Cn2c(nc3c2c(=O)[nH]c(=O)n3C)O1 (stereo not given)	nt	4	0.9	nt	nt	nt	7	?	-17	-0.5
COc1ccc(CCNC(=O)CC(c2ccccc2)c2cc(C)ccc2O)cc1OC (stereo not given)	nt	nt	-0.4	nt	nt	nt	12	-11%	-1	2.3
COc1ccc(-n2ncc3c(N4CCc5ccccc54)ncnc32)cc1	nt	14	-5.9	nt	nt	nt	3	1%	9	0.2
CCCn1nc(C(=O)NCC(C)(C)N2CCOCC2)c2ccccc2c1=O	nt	nt	0.6	nt	nt	nt	-6	4%	2	-1.1
CC(C)(C)NS(=O)(=O)c1ccc(NC(=O)C2CC(=O)N(CCc3ccc(F)cc3)C2)cc1 (stereo not given)	1.4	0	0.6	-1	-4	2.8	3	3%	0	3.9
Oc1nc(Nc2ccccc2)sc1/C=C1\C=Nc2ccccc21	-7.7	3	-1.7	-10	-19	20	91*	4%	33	21*
O=C(COC(=O)c1ccc2c(c1[N+](=O)[O-])C(=O)c1ccccc1C2=O)NC1CC1	-1.6	7	0.0	-15	-35	33	42	2%	66*	nt
O=C(c1c(Cl)nc2sccn12)N(C(=O)c1c(Cl)nc2sccn12)c1ccc(Cl)cn1	nt	-11	-0.3	nt	nt	nt	22	-2%	4	2.3
Cc1c(N=C/C=C2/N(C)c3ccccc3C2(C)C)c(=O)n(-c2ccccc2)n1C	2.2	35	0.4	0	-2	12	-2	-10%&18%	18	-1.8
Cc1ccc2c([N+](=O)[O-])cccc2n1	nt	-9	0.9	nt	nt	nt	12	-5%	-9	?
COc1ccc(CNC(=O)C2CCCN(c3ncnc4c3nc3n4CCCCC3)C2)cc1 (stereo not given)	nt	-8	-1.2	nt	nt	nt	9	-4%	0	2.4
Cc1ccc(CS(=O)Cc2ccc(C(=O)NCC(C)c3ccccc3)o2)cc1 (stereo not given)	0.0	6	0.7	-9	-23	-4.2	3	nt	-1	-0.9
Cc1cc(Cl)c(OCCn2ccnc2)c(Br)c1	4.1	1	0.7	-28	-32	-7.1	17	nt	19	3.3
N#C/C(=C\c1ccccc1C(F)(F)F)C(=O)Nc1ccccc1	-2.3	1	0.3	11	4	2.3	5	-3%	-16	4.1
Cn1c(=O)c2c(SCC(=O)Nc3nccs3)nc(C3CC3)nc2n(C)c1=O	2.9	15	-0.3	8	7	-1.7	15	-1%	-13	1.0
O=C(/C=C/NCc1cccnc1)c1ccc(Br)cc1	nt	-4	-0.1	11	-19	9.5	0	nt	22	3.8
CCC(c1nnnn1C1CCCC1)N1CCN(C(=O)c2ccco2)CC1 (stereo not given)	nt	7	-0.1	nt	nt	nt	-3	17%	2	5.1
CCc1ccc(/C=N/Nc2nn[nH]n2)cc1	nt	nt	-1.7	nt	nt	nt	0	0%	1	-0.5
Cc1cccc(NC(=O)CN2CCN(C(=O)C3CCC3)CC2)c1C	-18	3	-0.6	7	10	-2.5	nt	nt	nt	nt
Cc1sc2ncnc(Sc3nnnn3-c3ccc(Cl)cc3)c2c1C	nt	3	0.3	nt	nt	nt	-5	-5%	26	-0.7
C/C(=N\NC(=O)c1ccccc1C)c1ccc(N2CCOCC2)cc1	nt	-17	0.0	nt	nt	nt	-1	-15%	-15	-1.7
Oc1c(Br)cc(Br)cc1C=Nc1cccnc1	-2.6	-3	-0.7	12	6	1.5	-6	nt	14	-24
NC(=O)C1CCC(NC(=O)OCc2ccccc2)CC1 (stereo not given)	nt	nt	0.7	nt	nt	nt	5	-3%	-15	2.5
CCC1CCCCN1S(=O)(=O)c1ccc(NC(=O)c2snnc2C)cc1 (stereo not given)	2.1	nt	nt	-40	-59	-12	5	-4%	13	1.9
COC(=O)c1ccc(Cn2nc(-c3cc(C)ccc3C)ccc2=O)cc1	4.0	-6	0.1	-6	-19	1.5	-1	28%	-20	-1.1
Cc1ccc(OCC(O)Cn2c(N3CCOCC3)nc3c2c(=O)[nH]c(=O)n3C)cc1 (stereo not given)	nt	1	0.5	nt	nt	nt	-5	2%	-11	-2.8
CC1CCCCC1NC(=O)c1cccc(S(=O)(=O)N2CCN(Cc3ccccc3)CC2)c1 (stereo not given)	-7.7	12	-0.8	-4	-8	0.2	-5	nt	5	1.0
CCOC(=O)C1=C(C)N[C@@]2(O)c3ccccc3C(=O)[C@@]12O	-8.6	-10	0.7	nt	nt	nt	9	2%	1	-5.1
O=C(O)CCCC(=O)Nc1ccc(S(=O)(=O)Nc2nccs2)cc1	-1.4	0	1.8	-2	-2	-2.0	0	0%	-4	1.9
O=S(=O)(c1ccc(Cl)cc1)N1CN(CC2CCCO2)c2nc3ccccc3nc21 (stereo not given)	11	-2	0.1	-8	-11	4.1	-38	-1%	19	4.2
Cc1ccc(C)c(S(=O)(=O)N2C(=S)NC(=O)C2CC(C)C)c1 (stereo not given)	nt	1	0.4	nt	nt	nt	4	5%	-1	5.1
NC(=O)[C@@H]1CCCN1Cc1nc(-c2ccc(C(F)(F)F)cc2)no1	-10	4	-1.3	-4	-1	-7.2	-11	nt	-9	1.4
CNC(=S)Nc1cc(C(=O)N2CCCC2)ccc1N1CCCC1	0.5	-6	0.9	17	9	2.5	17	3%	-3	-4.7
O=C(Nc1nc2c(s1)CCCC2)c1cc2n(n1)C(C(F)(F)F)CC(C1CC1)N2 (stereo not given)	nt	8	-0.4	nt	nt	nt	-3	8%	28	1.3
